Screens (PubChem BioAssay)
Mtb growth = M. tuberculosis H37Rv growth inhibitors, H37Rv strain (AID 1626); M. tuberculosis H37Rv growth inhibition; higher % means a stronger effect; one-dose inhibition, % at 10 µM; IC50 in µM for titrated hits; 220,000 compounds, 0.95% hits;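 active = confirmed in a dose series; inconclusive = inhibition above 80% but not taken into the dose series; inactive = below 80% or under 30% at every dose of the series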;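 also: bacteria incubated seven days before Alamar blue readout; 0% = bacteria only wells and 100% = bacteria with antibiotic wells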
YopH inh = YopH tyrosine phosphatase inhibitors, primary screen, biochemical, fluorescence Ex485/Em525 | 140,000 compounds, 0.16% hits | inhibition, %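 (about 10 µM by stock and volumes)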 | YopH tyrosine phosphatase [Yersinia enterocolitica] | AID 898, 2007;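 active = inhibition of 50% or more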;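 also: controls were vehicle for no effect and minimum signal wells for full effect; inactives centre near -20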
Arbovirus anti = antivirals against arbovirus infection, primary screen, cell-based, full library, 10K replicate subset; arbovirus infection cell-based antiviral screen; AID 1251, 2008; inhibition, % at 10 µM; 200,000 compounds, 0.37% hits;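 active = inhibition from about 30%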;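 also: bluetongue infection of BSR cells; cell survival read as ATP light after 72 h; 0% = infected wells without compound and 100% = uninfected wells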
RecA splice inh = Mtb RecA intein splicing inhibitors, primary screen, biochemical, fluorescence, HTS; Protein RecA (Mycobacterium tuberculosis (strain ATCC 25618 / H37Rv)), P9WHJ3; cell-free RecA intein splicing; inhibition, %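 (about 9 µM by stock and volumes)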; 290,000 compounds, 0.75% hits; in the data active = inhibition above about 30%; inconclusive = no clear call, values can overlap the other calls;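 also: 0% = vehicle wells and 100% = reference inhibitor control wells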
Target sequence (P9WHJ3 whole entry, looked up, canonical isoform): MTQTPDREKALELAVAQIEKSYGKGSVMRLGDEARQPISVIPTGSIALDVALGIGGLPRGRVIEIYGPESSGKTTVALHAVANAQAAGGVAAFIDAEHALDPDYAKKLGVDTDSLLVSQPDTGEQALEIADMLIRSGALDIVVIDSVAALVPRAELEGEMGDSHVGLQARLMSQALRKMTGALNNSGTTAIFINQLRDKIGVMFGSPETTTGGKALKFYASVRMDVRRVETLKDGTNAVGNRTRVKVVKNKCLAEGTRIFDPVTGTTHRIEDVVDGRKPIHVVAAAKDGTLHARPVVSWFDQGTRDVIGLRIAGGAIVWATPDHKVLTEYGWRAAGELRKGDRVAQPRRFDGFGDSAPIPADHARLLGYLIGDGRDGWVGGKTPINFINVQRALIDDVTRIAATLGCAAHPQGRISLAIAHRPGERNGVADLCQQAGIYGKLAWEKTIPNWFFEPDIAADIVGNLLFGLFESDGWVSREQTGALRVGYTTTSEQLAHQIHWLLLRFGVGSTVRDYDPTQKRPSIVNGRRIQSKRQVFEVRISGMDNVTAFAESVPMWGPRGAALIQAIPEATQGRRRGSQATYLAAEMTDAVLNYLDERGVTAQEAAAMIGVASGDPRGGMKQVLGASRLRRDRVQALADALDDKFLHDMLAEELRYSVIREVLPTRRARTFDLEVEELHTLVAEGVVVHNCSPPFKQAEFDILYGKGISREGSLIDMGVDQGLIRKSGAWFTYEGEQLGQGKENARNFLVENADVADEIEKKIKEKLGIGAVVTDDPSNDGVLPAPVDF
Mtb betalactam = beta-lactam sensitization of Mtb H37Rv, H37Rv | M. tuberculosis H37Rv growth with meropenem, percent inhibition; hits of this screen are not shown here | inhibition, % at 25 µM | 330,000 compounds, 0.27% hits | AID 434955, 2010;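 active = about 74% or more and at least 40 points above the plate without the antibiotic, then above 30% in a dose series; inconclusive = first-round hits that could not be retested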;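 also: growth measured after seven days incubation then overnight dye step; 0% = bacteria only wells and 100% = bacteria with antibiotic; twin plates without the antibiotic show which effects depend on it; some results filed as inactive read as strong as hits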
Arbovirus anti repeat = also measured in Arbovirus anti; calls as there; inhibition, %; measured here: 10K subset replicate screen; many hits read low in the repeat;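 first of two repeat runs on a subset; 0% = infected and 100% = uninfected wells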
The depositor's hits bear a star; ? = inconclusive; . = not tested or not shown. The list is partial; rates above refer to the full screens.

SMILES	Mtb growth	YopH inh	Arbovirus anti	RecA splice inh	Mtb betalactam	others
COc1ccc(Cl)cc1NC(=S)N1CCN(c2ncccn2)CC1	11%	.	-12	5.8	1
CCc1nc2sc3c(=O)[nH]cnc3c2c2c1CSC(C)(C)C2	-4%	.	.	1.0	-2
Cc1ccc(O)c(C(CC(=O)NC(C)C)c2ccccc2)c1 (configuration not stated)	4%	.	0	-2.8	-3
CC(C)Nc1nc2nonc2nc1Nc1ccccc1	-19%	.	.	0.6	-9
O=C(Nc1ccc2c(c1)CCCN2C(=O)c1cccs1)c1c(F)cccc1Cl	.	.	.	7.1	80
COc1ccc(/C=N\NC(=O)/C(=C\Nc2nccc(C)n2)NC(=O)c2ccccc2)cc1	-4%	4	0	-1.9	-2
CO/N=C/C1C(=O)NN=C1c1ccccc1 (configuration not stated)	2%	.	7	0.9	-10
O=C(CCc1nc(-c2ccccc2)no1)Nc1cc(C(F)(F)F)ccc1Cl	-2%	-20	-7	3.6	-3
CCOc1ccc(NC(=O)Cc2nnc(SCC(=O)N3CCOCC3)n2C)cc1	.	.	.	-1.2	-2
COc1ccc(C(=O)NCCNC(=O)c2ccccn2)cc1	.	.	.	-1.5	5
COc1cc(/C=C2/SC(=S)N(Cc3ccccc3)C2=O)cc(Cl)c1O	.	.	.	-3.0	4
CCOc1ccc(S(=O)(=O)Nc2cc(S(=O)(=O)N(CC)CC)ccc2N2CCCC2)cc1	-2%	-19	-5	0.5	2
COC(=O)c1[nH]c(=O)c2ccccc2c1O	-3%	-9	-3	81*	-2
O=C(c1ccc(CS(=O)(=O)c2ccccc2)o1)N1CCOCC1	-1%	-36	-3	.	1	Arbovirus anti repeat=7
CN(C)CCN(C(=O)C1=COCCO1)c1nc2ccc(F)cc2s1	.	.	.	-0.2	5
CCOP(=O)(O)c1ccccc1OCCCCCOc1ccccc1P(=O)(O)OCC	-6%	-28	8	-1.5	3
O=C(OCc1nc2ccccc2s1)C1CCN(S(=O)(=O)c2cccs2)CC1	-1%	-64	-1	1.6	3
O=C(COC(=O)c1cc(Cl)nc2ccccc12)c1ccc(Cl)cc1	6%	-39	2	-0.9	11
O=C(Nc1cccc(Cl)c1)C1CC1c1ccccc1 (configuration not stated)	.	.	.	4.2	-9
CCOc1ccc(CCNC(=O)CN2C(=O)c3cccnc3Oc3ccc(Cl)cc32)cc1	.	.	.	-0.1	?
Cc1ccc(N2C(=O)CC(NNC(=O)Cc3ccc(F)cc3)C2=O)cc1Cl (configuration not stated)	.	.	.	-0.4	-2
Cc1ccc(-n2c(-c3nn(C)cc3Cl)n[nH]c2=S)cc1	-7%	-21	0	1.7	-5
COC(=O)c1cc(Cl)c(NC(=O)c2ccc(C(C)(C)C)cc2)cc1OC	47%	-21	-6	0.8	99
O=C(/C(=N\O)n1cncn1)c1ccc(Cl)cc1Cl	-11%	.	-5	-4.3	-1
COC(=O)c1cccc(Cn2c(Cl)c(/C=N/NC(=O)c3ccccc3Cl)sc2=O)c1	3%	2	3	0.0	-13
CN(C)CCC#CC(O)(c1ccccc1)c1ccccc1	8%	-15	-2	2.4	-3
CN(c1ccccc1)S(=O)(=O)c1ccc(C(=O)Nc2nccs2)cc1	-7%	-28	-5	-1.5	-6	Arbovirus anti repeat=-2
CC1Oc2ccccc2N(CC(=O)NCC2CCCO2)C1=O (configuration not stated)	10%	-29	-1	-0.1	-1
Cc1ccc(NC(=O)CNCc2ccccc2)cc1Br	32µM*	.	-3	2.9	88
O=C(CSCCO)Nc1ccc(C2CCCCC2)cc1	12%	-17	-7	.	-22
Cc1ccc(C(=O)N/C(=C\c2ccc(Cl)cc2)C(=O)NCCN2CCOCC2)cc1	.	.	.	-1.9	-4
C/C(=N\NC(=O)C(N)=O)c1ccc2c(c1)OCCO2	4%	.	0	-0.4	-4
CCCCN1CNC(=S)N(CCc2ccccc2)C1	0%	-12	15	2.1	5
C/C(=N\N1CCCCCC1)c1c(O)n(-c2ccc(C)cc2)c(=O)[nH]c1=O	13%	-26	-6	-1.6	4
CCOc1ccccc1N(CC(=O)Nc1ccc(S(=O)(=O)N2CCOCC2)cc1)S(C)(=O)=O	.	.	.	-4.7	2
CCN1C(=O)[C@H]2[C@@H](c3ccc(C)cc3)N3C(=O)N(c4ccc(C)cc4)C(=O)[C@@]3(Cc3ccc(Cl)cc3)[C@H]2C1=O	.	.	.	0.2	68
CCC(CC)NC(=O)Cc1ccccc1[N+](=O)[O-]	-9%	-40	0	5.2	1
O=C(CCC1CCCN(C(=O)c2cncs2)C1)NCc1ccc(F)c(F)c1 (configuration not stated)	2%	.	-6	.	-8
CCCCCCN=C(C)c1ccccc1O	4%	.	.	2.0	6
c1cc2c(cc1CCNC1C3CC4CC(C3)CC1C4)OCO2 (configuration not stated)	-10%	-6	-11	-4.6	-15
CCc1ccc(C2CC(=O)N3CN(c4ccccc4)CSC3=C2C#N)cc1 (configuration not stated)	-14%	-21	9	14	-4	Arbovirus anti repeat=8
CCOC(=O)c1ccc(NC(=O)C2(c3ccccc3)CCOCC2)cc1	5%	-21	-6	0.5	-9
CCOC(=O)c1nn(-c2ccccc2F)c2nc(-c3ccco3)c(C#N)c(=O)n12	-1%	-32	8	-8.3	0
Clc1ncccc1-c1nnn(-c2ccccc2Br)n1	1%	.	2	0.8	2
Nc1c2c(nc3cccc(Cl)c13)N(c1ccccc1)CC2	.	.	.	-2.4	-6
O=C(Cc1ccc(F)cc1)Oc1ccc(C(=S)N2CCCC2)cc1	-8%	-13	-6	21	5
CCCCc1cc(=O)oc2c(C)c(OCC(=O)NCCN3CCOCC3)ccc12	.	.	.	-0.4	0
Cc1ccc(S(=O)(=O)N/N=C/c2ccc(OCC(=O)NC(C)C)cc2)cc1	4%	-4	.	-2.5	-16
CCN(CC)c1ccc(N2C(=O)/C(=C/c3cccnc3)SC2=S)cc1	3%	-31	-7	-5.5	?
Cc1ccc2nc3c(c(N)c2c1)CCN3c1ccccc1	-4%	-36	4	-1.2	-5
COc1ccc(/C=C/C(=O)NC(=S)NNC(=O)c2cc(OC)c(OC)c(OC)c2)cc1OC	-2%	.	.	1.8	-9
Oc1[nH]c(=S)sc1/C=C1\C(c2ccccc2)=Nc2ccccc21	51%	-13	-11	6.9	6
Cc1ccc(NC(=O)c2ccccc2)cc1OC(=O)c1ccccc1	6%	-23	1	2.0	15
COc1ccc(-n2c(Cc3cccn3C)nnc2SCC(=O)NCc2ccc(F)cc2)cc1	-2%	-15	-1	-3.7	-3
CCOC(=O)c1sc2cc([N+](=O)[O-])cc(SCCO)c2c1N	-1%	-12	-19	-2.5	1
CC(C)N1CCN(Cc2cccs2)CC1CCO (configuration not stated)	3%	.	-5	6.4	.
COc1ccc(C(C)C)cc1S(=O)(=O)NC1CCCC1	.	.	.	0.7	5
c1ccc(CSc2ncn[nH]2)nc1	0%	.	4	-4.5	4
FC(F)(F)c1nnc2ccc(NCn3nnc4ccccc43)nn12	-2%	0	1	.	-5
COc1nc(NC(C)C)nc(NC(C)C)n1	-13%	-19	13	-0.8	-10

(continued)
SMILES	Mtb growth	YopH inh	Arbovirus anti	RecA splice inh	Mtb betalactam	others
Cc1cc(C)c(C)c(S(=O)(=O)N2CCN(CC(=O)Nc3sccc3C#N)CC2)c1C	-6%	-5	0	-0.2	?
CCc1cccc(CC)c1NC(=O)Cn1c(-c2ccccc2Cl)nc2ccccc21	2%	6	5	-3.1	1
CC1(C)Oc2ccc(C(=O)Nc3ccccc3)cc2N(CC#N)C1=O	.	.	.	-1.0	3
O=C(CNc1ccccc1)N/N=C/c1c[nH]c2ccccc12	7%	-26	6	-1.1	-1
COc1ccccc1NCC(=O)N/N=C(\C)c1cccs1	3%	.	3	-0.9	-3
CCCCC#Cc1ccccc1CC(=O)Nc1ccccc1	1%	-10	11	1.2	2
CC(C)N(C(=NCc1ccccc1)NC(=O)c1ccccc1)C(C)C	.	.	.	-2.1	4
FC(F)(F)Oc1ccc(NC(=S)Nc2ccccc2N2CCOCC2)cc1	4%	.	.	2.0	-8
CCOc1ccccc1NC(=O)c1cccc2c1C(=O)N(C1CCCCC1)C2	.	.	.	14	4
Cn1c(SCC(=O)Nc2ccc(N3CCOCC3)c(Cl)c2)nnc1-c1ccccc1	-9%	-8	.	-1.1	95
CCCCC(CC(O)COCCC)C(=O)NN (configuration not stated)	-7%	.	-3	-3.1	10
CC1=CC(=O)C(C(C)C)=CC1=NC(=O)c1ccc(C)cc1	13%	.	3	0.9	1
O=C(Oc1ccc(-c2nccc(-c3ccccn3)n2)cc1)c1cccc(C(F)(F)F)c1	60%	-15	1	2.6	67
O=C(CN1C(=O)NC2(CCc3ccccc32)C1=O)c1ccc(Cl)cc1 (configuration not stated)	.	.	.	0.4	-1
CN1CCN(C(=O)C2=C[C@@H](C3CCCCC3)C[C@@H](OCc3ccc(CO)cc3)O2)CC1	-13%	.	-3	-1.7	-4
CCN1C(=O)c2cccc3c(S(=O)(=O)N4CCCC4C(=O)O)ccc1c23 (configuration not stated)	.	.	.	-112	1
COc1ccc(CCNC(=S)c2ccccc2)cc1OC	.	.	.	-1.6	-2
